CapD inh: CapD enzyme inhibition. purified CapD enzyme, fluorescence intensity read-out; hits give low values; some hits fall short of the stated cut. z-score (concentration not given with the values). 140,000 compounds, 0.23% hits. AID 492967;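 active means z-score under -4 in either of two replicates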;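 further: stock transfer was 100 nL into about 40 µL; score is relative to mean and spread of the plate; one replicate is shown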
AID504770: E. coli YBA685 growth inhibition, screen for V. cholerae RctB inhibitors; 130,000 compounds, 0.27% hits; AID 504770; z-score (test concentration not listed); E. coli YBA685 rctB-dependent plasmid, OD600 growth, 3 h; hits give low values;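 active means z-score under -2 on both plates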;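 further: wells of about 30 µL received 100 nL stock; score is relative to mean and SD of the test wells; the first replicate is given; strong numbers were not always called active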
* marks the source's active call; other numbers are inactive results; nt = not tested or not shown.

Results follow in this order: CapD inh | AID504770
1: O=C(CSc1nc2ccc(NC(=O)c3ccc(Cl)c(Cl)c3)cc2s1)NCC1CCCO1 (stereo not given)
    0.68 | nt
2: COc1ccc(N2CCN(S(=O)(=O)c3ccc(F)c(C(=O)Nc4ccc(Br)cc4)c3)CC2)cc1
    -0.32 | nt
3: O=C(O)Cn1c(=O)oc2cc(Cl)ccc21
    -0.475 | 1.1
4: C#CCn1c(=NC(C)=O)sc2cc(NC(C)=O)ccc21
    nt | -0.35
5: CCCN(C(=O)C(C)(C)C)C1CCN(C)CC1
    -0.255 | nt
6: CN1CCC(N(C)CC(O)COCc2ccccc2F)CC1 (stereo not given)
    0.675 | 0.35
7: CCOc1ccc2nc(SC3CC(=O)N(c4ccc(OC)cc4)C3=O)nc(C)c2c1 (stereo not given)
    8.25 | nt
8: CCN(CC)c1ncnc2sc(C(=O)Nc3cc(Cl)c(OC)cc3OC)c(C)c12
    0.335 | nt
9: CC(C)(C)c1csc(-c2ccc(O)cc2)n1
    nt | -0.65
10: CC(=O)NC1=NC(=O)C(C)S1 (stereo not given)
    -1.05 | -1
11: CC(C)c1ccc2occ(CC(=O)Nc3nnc(C(C)C)s3)c2c1
    0.02 | -0.65
12: C[C@@H]1NC(=O)[C@@H]2C[C@@H](OC(=O)c3ccccc3)CN2C1=O
    nt | 0.2
13: CC(C)(C)c1ccc(S(=O)(=O)CCSc2nc3c(cc2C#N)CCCC3)cc1
    0.01 | -0.4
14: O=C(NCCCN1CCOCC1)c1nn2c(C(F)(F)F)cc(-c3ccc(Cl)cc3)nc2c1Cl
    0.41 | nt
15: O=C(O)CC(C(=O)Nc1ccccc1I)C1CCCO1 (stereo not given)
    -0.065 | 1.65
16: CC1(C)OC2C(COC(=O)c3ccccc3)OC(n3ccc(=O)[nH]c3=O)C2O1 (stereo not given)
    -0.155 | nt
17: COc1ccc(-c2ccnc(SCC(=O)N3CCN(c4ccccc4)CC3)n2)cc1
    -1.29 | -0.05
18: Cc1ccc(Nc2nc(Nc3ccc(C)cc3)nc(-n3sc(=S)nc3C)n2)cc1
    0.285 | -0.55
19: Cc1nn(CCCC(=O)NCc2ccccc2)c(=O)c2nccn12
    -0.035 | -0.9
20: Cc1ccccc1N1C(=O)C2C(c3ccccc3)CCC(c3ccccc3)C2C1=O (stereo not given)
    -0.4 | nt
21: CC(Oc1ccc(F)cc1)C(=O)NN (stereo not given)
    nt | -0.35
22: Cc1nc(C(F)(F)F)ccc1C(=O)Oc1ccc2c(c1)OCO2
    -0.48 | -0.7
23: CCOC(=S)NC(C)(C)C
    0.185 | 1.65
24: Cc1ccccc1NC(=O)C(C)(C)c1ccccc1
    -0.405 | -0.45
25: CNC(=O)C(NC(=O)c1c(-c2c(F)cccc2Cl)noc1C)C(C)(C)C (stereo not given)
    -0.225 | nt
26: CC(=O)NC(c1ccccc1)c1c(O)ccc2ccccc12 (stereo not given)
    17.9 | 0
27: CC(=O)Nc1ccc(S(=O)(=O)N(C)C)cc1
    nt | 0.55
28: COCCNC(=O)Cn1ncn2nc(-c3ccccc3)cc2c1=O
    0.52 | -0.75
29: COc1ccc(CCNC(=O)C(Sc2ccc(Cl)cc2)c2ccccc2)cc1OC (stereo not given)
    0.64 | 0.4
30: N=c1c[n+](C2CCCCC2)[n-]o1
    -0.015 | 0.5
31: COC(=O)C(C)Oc1ccc(C(=O)O)cc1OC (stereo not given)
    -1.4 | -0.25
32: CCN(CC)C(=O)CSc1nc2cc3c(cc2c(=O)n1Cc1ccc(OC)cc1)OCO3
    0.03 | 1.4
33: N#Cc1c(-c2ccco2)cc(-c2cccs2)nc1OCc1ccc(F)cc1
    81.1 | -0.45
34: Cc1ccccc1N=C(NOCc1ccc(Cl)cc1Cl)c1nonc1N
    -0.25 | nt
35: O=C1CC2(CCCC2)C(=O)N1c1ccc(OC(F)(F)F)cc1
    0.43 | -0.2
36: CC(C(=O)OCC(=O)c1ccc[nH]1)N1C(=O)c2ccccc2C1=O (stereo not given)
    nt | 0
37: O=C(OC[C@H]1O[C@H](OC(=O)c2cc(O)c(O)c(OC(=O)c3cc(O)c(O)c(O)c3)c2)[C@H](OC(=O)c2cc(O)c(O)c(OC(=O)c3cc(O)c(O)c(O)c3)c2)[C@@H](OC(=O)c2cc(O)c(O)c(OC(=O)c3cc(O)c(O)c(O)c3)c2)[C@@H]1OC(=O)c1cc(O)c(O)c(OC(=O)c2cc(O)c(O)c(O)c2)c1)c1cc(O)c(O)c(OC(=O)c2cc(O)c(O)c(O)c2)c1
    nt | 0.75
38: CC1CC(C)CN(C(=O)COC(=O)/C=C/c2ccco2)C1 (stereo not given)
    -1.69 | -0.55
39: Oc1ccc(/C=N/N=C/C2=C(N3CCOCC3)C(=C\c3ccccc3)/CC2)c(O)c1
    nt | 2.05
40: S=C1NCN(CC2CC2)CN1
    -0.77 | nt
41: CC(C(=O)N1CCc2ccccc21)N1C(=O)c2ccccc2C1=O (stereo not given)
    -0.825 | -0.8
42: Cc1c(C(=O)N2CCN(C)CC2)sc2ncnc(N3CCN(c4ccccc4F)CC3)c12
    -0.375 | nt
43: CCOC(=O)c1c(-c2ccccc2)oc2ccc(OC(=O)c3ccc(Cl)cc3)cc12
    1.33 | nt
44: O=C1NCC(c2ccccc2)C1C(=O)N/N=C\c1cc2c(cc1Br)OCO2 (stereo not given)
    1.95 | -0.95
45: Cc1noc(C)c1COc1ccc(C(=O)OCCN2C(=O)c3ccccc3C2=O)cc1
    nt | -0.2

Quoted at random: 2 records from the list, in no set order.
Results follow in this order: CapD inh | AID504770
38: CC1CC(C)CN(C(=O)COC(=O)/C=C/c2ccco2)C1 (stereo not given)
    -1.69 | -0.55
35: O=C1CC2(CCCC2)C(=O)N1c1ccc(OC(F)(F)F)cc1
    0.43 | -0.2

More entries follow.
Results follow in this order: CapD inh | AID504770
46: CCn1c(C)c(C(C)(C)C)s/c1=N\S(=O)(=O)c1ccc(Cl)cc1
    nt | -0.15
47: CCS(=O)(=O)CS(=O)(=O)CC
    -0.66 | -0.7
48: S=C(NCCN1CCOCC1)N1CCc2ccccc21
    -0.665 | -0.8
49: C=CCN1C(=O)S/C(=C/c2ccc(Sc3nc4ccccc4[nH]3)o2)C1=O
    -0.58 | -0.8
50: CC(=O)NC(=S)Nc1ccc(Nc2ccccc2)cc1
    -0.535 | 0.2
51: CC1=CC(C)C2C(=O)N(c3ccccc3)NC(=O)C2C1 (stereo not given)
    -0.085 | 1.65
52: CC(Sc1nc(-c2cccnc2)ccc1C#N)C(=O)O (stereo not given)
    0.055 | -0.55
53: O=C(Nc1nccs1)c1cc2ccccc2oc1=Nc1ccc(Cl)cc1
    0.17 | 0.35
54: O=C(N/N=C/c1cc2ccccc2o1)c1cccs1
    2.33 | nt
55: COC(=O)C1=C2NC(=O)c3ccccc3N2C(=O)C1
    nt | -0.25
56: O=C(O)CCCNC1=NCCC1
    0.215 | -0.15
57: Cc1[nH]c(=S)c(C#N)c(C)c1CC(=O)c1ccc(Br)cc1
    -0.19 | 0
58: Nc1c(Cl)ncnc1N1CCCCC1
    nt | -0.15
59: CCc1cc(=O)oc2cc(OC(=O)c3ccco3)c(Cl)cc12
    12.9 | 0.5
60: O=C(Nc1ccc2oc(-c3ccncc3)nc2c1)c1ccco1
    52.4 | -0.6

7 structures out of the list, ordered by number of heavy atoms, ascending.
Results follow in this order: CapD inh | AID504770
56: O=C(O)CCCNC1=NCCC1
    0.215 | -0.15
54: O=C(N/N=C/c1cc2ccccc2o1)c1cccs1
    2.33 | nt
50: CC(=O)NC(=S)Nc1ccc(Nc2ccccc2)cc1
    -0.535 | 0.2
57: Cc1[nH]c(=S)c(C#N)c(C)c1CC(=O)c1ccc(Br)cc1
    -0.19 | 0
59: CCc1cc(=O)oc2cc(OC(=O)c3ccco3)c(Cl)cc12
    12.9 | 0.5
60: O=C(Nc1ccc2oc(-c3ccncc3)nc2c1)c1ccco1
    52.4 | -0.6
53: O=C(Nc1nccs1)c1cc2ccccc2oc1=Nc1ccc(Cl)cc1
    0.17 | 0.35

(list continues)
Results follow in this order: CapD inh | AID504770
61: Cc1cccc(NC(=O)CSc2nc3n[nH]c(C)c3c(=N)n2-c2cccc(C)c2)c1
    1.82 | 1
62: COc1ccc(OCC(O)CNC(C)(C)C)cc1 (stereo not given)
    0.47 | -0.15
63: Cc1c(C(=O)NCc2ccccc2)oc2ccc3c(c12)C=CC1(CCCC1)O3
    2.05 | 0.4
64: Cc1ccc(NC(=O)c2ccc(Cl)c(Cl)c2)c(C)c1
    -0.74 | nt
65: NC(=O)CSc1nnc(Cn2cnc3ccccc32)o1
    nt | 0.3
66: C=CCn1cc(C(=O)OC)c(=O)c2cc(S(=O)(=O)N(CC)CC)ccc21
    1.64 | -0.1
67: C/C(=C\C#N)N1CCOCC1
    nt | 1.8
68: Cc1nc2cc(-c3ccsc3-n3c(C)ccc3C)nn2c(C)c1Cl
    -0.175 | nt
69: Cc1nn(-c2ccccc2)c(C)c1N=Nc1cc(Cl)cc(Cl)c1
    0.365 | nt
70: Cc1nc2ccc(S(=O)(=O)NCC(=O)N3CCC(Cc4ccccc4)CC3)cc2s1
    0.675 | -0.5
71: COc1ccc(Cc2nnc(Nc3ccc4c(c3)OCO4)[nH]c2=O)cc1
    -0.475 | 0.5
72: CCOC(=O)c1[nH]c(COC(=O)c2ccccc2NC(=O)c2ccco2)c(C(=O)OCC)c1C
    nt | -0.35
73: C/C(=N\O)c1cc(-c2ccccc2)no1
    -0.96 | -1.2
74: Cc1ccc(NC(=O)C(Sc2nnc(-c3ccc4c(c3)OCO4)o2)c2ccccc2)cc1 (stereo not given)
    nt | -0.35
75: Nc1nonc1NC(=O)N/N=C/c1ccc(C(F)(F)F)cc1
    -0.145 | 0.45

Quoted from the listing.
compound 62 @ AID504770: -0.15
compound 75 @ AID504770: 0.45

(listing goes on)
Results follow in this order: CapD inh | AID504770
76: CC(C)C(NC(=O)c1ccccc1NC(=O)c1ccco1)C(=O)N1CCCCC1 (stereo not given)
    nt | -0.3
77: CP(=O)(c1nccn1-c1ccc(Cl)nn1)N1CCCCCC1 (stereo not given)
    nt | -0.65
78: O=C(NCc1ccc(N2CCCC2=O)cc1)Nc1ccccc1
    -0.57 | 0.25
79: COc1cc(NC(=O)CSc2nc3ccccc3n2S(=O)(=O)c2ccccc2)cc(OC)c1OC
    -0.46 | nt
80: COCc1cc(=O)[nH]c(=S)[nH]1
    0.115 | nt
81: COC(=O)c1ccc(C(=O)OC)c(NC(C)=O)c1
    nt | 0.25
82: CC(NC(=O)c1ccco1)C(=O)Nc1ccc(OCc2ccccc2)cc1 (stereo not given)
    -1.46 | -0.9
83: Cc1cnn(-c2ccccc2)c(=O)c1N(C)C
    nt | 0.05
84: COC(=O)c1ccccc1NC(=O)CNc1cc(Cl)ccc1N1CCOCC1
    nt | -0.4
85: CC(=O)SCCC(=O)Nc1ccccc1
    0.2 | -0.85
86: O=c1c(Cl)c(N2CCOCC2)cnn1-c1ccccc1
    -0.21 | -0.1
87: N#CC1=C(N)N(c2ccccc2)c2oc(-c3ccccc3)nc2C1c1cccc(O)c1 (stereo not given)
    -0.18 | 0.35
88: COC(=O)c1ccc(-c2ncc(-c3ccc(N(C)C)cc3)o2)cc1
    nt | 0.7
89: CCOC(=O)c1cc(-c2ccc(C)cc2)n(CCC(=O)NC2CCCCCC2)c1C
    1.52 | 1.15
90: CCOC(=O)C1=C(CC)NC2=C(C(=O)CCC2)C1c1ccc(Cl)cc1 (stereo not given)
    9.68 | 0.45
91: CCC(Sc1nc(NC(C)=O)c(NC(=O)c2cccs2)c(=O)[nH]1)C(=O)O (stereo not given)
    nt | -0.5
92: Cc1c(NC(=O)CCN2C(=O)/C(=C/c3ccc(Cl)cc3Cl)SC2=S)c(=O)n(-c2ccccc2)n1C
    0.185 | nt
93: CC(=O)N(c1ccc2oc3c(c2c1)CCCC3)S(=O)(=O)c1ccccc1
    -0.08 | -0.55
94: CCN1C(=O)CCSc2ccccc21
    nt | -1.45
95: Cc1ccsc1/C=N/N1CCN(Cc2ccc(Cl)cc2)CC1
    -0.39 | -0.15
96: O=C(NCC1COc2ccccc2O1)c1ccco1 (stereo not given)
    0.095 | 0.8
97: CN(C)/C=N/C(=O)N1CCN(c2ncc(C(F)(F)F)cc2Cl)CC1
    0.07 | nt
98: CCC(=O)N1CC(=O)Nc2ccc(Br)cc2C1c1ccccc1 (stereo not given)
    0.705 | -0.05
99: CC(C)n1ncc2c(C(=O)OCc3ccc(C#N)cc3)cc(-c3ccccc3)nc21
    nt | -0.65
100: CCCCCOC(=O)N1CCC(O)(Cc2ccccc2)CC1
    -0.05 | nt
101: COc1ccc(-c2onc3ccc(Br)cc23)cc1
    0.245 | 1.55
102: COC(=O)c1nc(-c2ccccc2)oc1N(C)C
    109 | 0.1
103: CCOC(=O)c1c(C)oc2c1c(C=NC(C)c1ccccc1)c(O)c1ccccc12 (stereo not given)
    6.78 | -0.55
104: C#CC1(NC(=O)NCCCCCCNC(=O)NC2(C#C)CCCCC2)CCCCC1
    -0.485 | nt
105: Nc1c(S(=O)Cc2ccccc2)sc2nc(-c3cccs3)cc(-c3ccccc3)c12 (stereo not given)
    1.18 | 0
106: CN(C)c1ccc(C=NCCNc2ncc(C(F)(F)F)cc2Cl)cc1
    -1.05 | nt
107: COC(=O)Cc1c(C)c2ccc(OCC(N)=O)c(C)c2oc1=O
    62.2 | 1.45
108: COc1ccc2oc(=Nc3ccc(C(=O)c4ccccc4)cc3)c(C(N)=O)cc2c1
    0.12 | nt
109: N#C/C(C(=O)c1ccccc1)=C1/Nc2ccccc2C1=O
    nt | -0.15
110: CCOC(=O)C(=O)N1c2ccc(OCC)cc2-c2c(ssc2=S)C1(C)C
    -1.43 | nt
111: COc1ccccc1NC(=O)c1cn(-c2ccccc2)nc1-c1cccnc1
    -0.555 | 1.75
112: O=S(=O)(Oc1cc(-c2ccccc2)no1)c1ccc(Cl)cc1Cl
    -0.41 | nt

Screens from PubChem BioAssay.
